Bioassay records from PubChem BioAssay.
RecA splice inh: Mtb RecA intein splicing inhibitors, primary screen, biochemical, fluorescence, HTS; Protein RecA (Mycobacterium tuberculosis (strain ATCC 25618 / H37Rv)), P9WHJ3; cell-free RecA intein splicing; inhibition, %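 (about 9 µM by stock and volumes)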; 290,000 compounds, 0.75% hits; AID 2221, 2009; in the data active = inhibition above about 30%;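 note: 0% = vehicle wells and 100% = reference inhibitor control wells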
Target sequence (P9WHJ3 whole entry, looked up, canonical isoform): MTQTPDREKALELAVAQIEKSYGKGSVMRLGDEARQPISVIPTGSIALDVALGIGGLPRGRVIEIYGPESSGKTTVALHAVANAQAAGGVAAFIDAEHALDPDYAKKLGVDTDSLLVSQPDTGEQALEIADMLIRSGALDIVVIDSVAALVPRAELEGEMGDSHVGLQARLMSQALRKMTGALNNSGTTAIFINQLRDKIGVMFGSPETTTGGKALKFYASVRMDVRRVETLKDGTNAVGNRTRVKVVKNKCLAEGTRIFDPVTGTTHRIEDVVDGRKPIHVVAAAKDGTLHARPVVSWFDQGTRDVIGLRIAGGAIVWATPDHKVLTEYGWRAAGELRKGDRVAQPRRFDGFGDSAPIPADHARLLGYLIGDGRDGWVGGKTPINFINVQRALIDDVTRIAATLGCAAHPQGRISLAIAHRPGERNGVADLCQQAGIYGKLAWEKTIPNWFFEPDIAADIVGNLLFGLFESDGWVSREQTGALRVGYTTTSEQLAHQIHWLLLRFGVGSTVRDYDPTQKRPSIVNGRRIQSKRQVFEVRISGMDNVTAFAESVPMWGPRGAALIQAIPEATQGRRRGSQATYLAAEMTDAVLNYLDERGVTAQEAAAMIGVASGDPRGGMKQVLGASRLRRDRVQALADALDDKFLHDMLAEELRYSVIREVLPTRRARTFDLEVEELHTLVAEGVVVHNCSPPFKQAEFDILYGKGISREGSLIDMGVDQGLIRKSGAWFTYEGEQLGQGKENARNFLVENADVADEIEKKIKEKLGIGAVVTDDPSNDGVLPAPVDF
Arbovirus inh: antivirals against arbovirus infection, primary screen, cell-based, full library, 10K replicate subset. arbovirus infection cell-based antiviral screen. inhibition, % at 10 µM. 200,000 compounds, 0.37% hits. AID 1251, 2008;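 active = inhibition from about 30%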;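 note: bluetongue infection of BSR cells; cell survival read as ATP light after 72 h; 0% = infected wells without compound and 100% = uninfected wells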
Mtb bLac sens: beta-lactam sensitization of Mtb H37Rv, H37Rv; M. tuberculosis H37Rv growth with meropenem, percent inhibition; hits of this screen are not shown here; inhibition, % at 25 µM; 330,000 compounds, 0.27% hits; AID 434955, 2010;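 active = about 74% or more and at least 40 points above the plate without the antibiotic, then above 30% in a dose series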;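 note: growth measured after seven days incubation then overnight dye step; 0% = bacteria only wells and 100% = bacteria with antibiotic; twin plates without the antibiotic show which effects depend on it; some results filed as inactive read as strong as hits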
YopH PTP inh: YopH tyrosine phosphatase inhibitors, primary screen, biochemical, fluorescence Ex485/Em525. YopH tyrosine phosphatase [Yersinia enterocolitica]. inhibition, %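 (about 10 µM by stock and volumes)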. 140,000 compounds, 0.16% hits. AID 898, 2007;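 active = inhibition of 50% or more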;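 note: controls were vehicle for no effect and minimum signal wells for full effect; inactives centre near -20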
Mtb H37Rv: M. tuberculosis H37Rv growth inhibitors, H37Rv strain (AID 1626); M. tuberculosis H37Rv growth inhibition; higher % means a stronger effect; one-dose inhibition, % at 10 µM; IC50 in µM for titrated hits; 220,000 compounds, 0.95% hits;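 active = confirmed in a dose series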;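 note: bacteria incubated seven days before Alamar blue readout; 0% = bacteria only wells and 100% = bacteria with antibiotic wells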
Arbovirus inh repeat: further read-out of Arbovirus inh, marked with its call; inhibition, %; measured here: 10K subset replicate screen; many hits read low in the repeat;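 first of two repeat runs on a subset; 0% = infected and 100% = uninfected wells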
* marks the source's active call; other numbers are inactive results; . = no result given.

SMILES	RecA splice inh	Arbovirus inh	Mtb bLac sens	YopH PTP inh	Mtb H37Rv	others
O=C1CC(c2ccco2)Cc2nc(Nc3ccc(F)cc3)ncc21 (stereo not given)	-0.6	-1	26	-33	11%
COc1ccc(OC)c(N(CC(=O)N2CCN(c3cc(Cl)ccc3C)CC2)S(C)(=O)=O)c1	4.9	41*	-2	-72	1%
CC(/C=N/n1c(-c2ccccn2)n[nH]c1=S)=C\c1ccccc1	2.2	.	-8	.	-4%
O=c1cc(NCc2ccc3c(c2)OCO3)[nH]c(=O)n1-c1ccc(Cl)cc1	.	-1	-16	-19	-6%
CC(C)CN(C(=O)CCCOc1ccc(Cl)cc1Cl)c1c(N)n(Cc2ccccc2)c(=O)[nH]c1=O	3.1	.	-5	.	.
CC(C)(C)c1ccc(C(=O)NCCC(=O)N2CCCC2)cc1	1.4	.	2	.	.
Cc1cccc(OCC(O)CN2CC3(C)CC2CC(C)(C)C3)c1 (stereo not given)	0.0	-26	-1	-21	-1%
COc1cc2cc(CN(C(=O)NC3CCCCC3)C3CCCC3)c(=O)[nH]c2cc1OC	-2.6	-8	-3	-38	4%
C=C(C)Cn1c(N2CCCC2)nc2c1c(=O)n(C)c(=O)n2C	1.3	.	2	.	.
COc1ccc(/C(C)=N\NC(=O)CSc2nnc(C)s2)cc1	-1.2	1	0	-19	-3%
O=C(NCC1CCCO1)C(c1ccc(F)cc1)N(CCCN1CCOCC1)C(=O)c1ccc(-c2ccccc2)[nH]1 (stereo not given)	.	1	-4	.	1%
O=C(c1ccc(-c2nnc(-c3ccccc3)o2)cc1)N1CCCCCC1	2.4	-6	6	-41	2%
COCCCn1c(SCC(=O)NC2CCCCC2)nnc1-c1ccncc1	3.6	5	9	-43	-11%
Cc1cc(C(=O)C(=O)N(C)C)c(C)n1-c1ccc(Cl)cc1	2.7	-5	4	.	0%
CC(C)c1ccc(NC(=O)NCc2ccccn2)cc1	0.6	.	-21	.	.

Structures above with sulfur:
SMILES	RecA splice inh	Arbovirus inh	Mtb bLac sens	YopH PTP inh	Mtb H37Rv	others
COc1ccc(OC)c(N(CC(=O)N2CCN(c3cc(Cl)ccc3C)CC2)S(C)(=O)=O)c1	4.9	41*	-2	-72	1%
CC(/C=N/n1c(-c2ccccn2)n[nH]c1=S)=C\c1ccccc1	2.2	.	-8	.	-4%
COc1ccc(/C(C)=N\NC(=O)CSc2nnc(C)s2)cc1	-1.2	1	0	-19	-3%
COCCCn1c(SCC(=O)NC2CCCCC2)nnc1-c1ccncc1	3.6	5	9	-43	-11%

The list continues:
SMILES	RecA splice inh	Arbovirus inh	Mtb bLac sens	YopH PTP inh	Mtb H37Rv	others
Cc1cc(C)c(C(N)=O)c(Nc2cccc(Cl)c2C)n1	6.2	4	12	25	-6%
CCOC(=O)C(C(C)=O)c1nc(C)nc2c1nnn2Cc1ccccc1Cl (stereo not given)	6.1	-1	.	-9	-4%
CC(C)CNC(=O)C(=O)NC1CCCC1	2.0	.	-6	-24	-7%
O=C(Cc1ccc(-n2c(=O)c3sccc3n(Cc3ccc(F)cc3)c2=O)cc1)NCc1ccco1	0.8	-1	-5	-11	4%
COc1ccc(/C=C/C(=O)c2ccc3c(c2)OCO3)c(OC)c1	2.9	6	94	-43	9%
COc1ccccc1N1CCN(/N=C/c2cc(OC)c(OC(C)=O)c(OC)c2)CC1	-1.8	.	0	.	.
CC(C)=CCc1c(C)nc2ccccc2c1C(=O)O	4.6	3	3	-34	-1%
O=C(Nc1ccccc1)N1N=C(c2cccs2)CC1c1cccs1 (stereo not given)	1.2	2	9	-17	13%
COc1ccc(-c2ccc(SCC(=O)NCc3ccc4c(c3)OCO4)nn2)cc1OC	5.2	16	5	.	-1%
COc1ccc(OC)c(S(=O)(=O)N2CCC3(CC2)OCCN3S(=O)(=O)c2ccccc2)c1	0.1	.	-2	.	.
C[C@@H](C(=O)Nc1ccc2ccccc2c1)[C@@H]1C[C@@]1(C)[C@@H](NC(=O)c1cccnc1)c1ccccc1	4.8	-29	2	-3	.
CCn1c(O)c(N=NC(=O)CNC(=O)/C=C/c2ccccc2)c2ccccc21	-1.0	.	0	.	.
Cn1nc(C(F)(F)F)c(-c2ccccc2)c1NC(=O)c1nccnc1C(=O)O	-2.1	.	9	.	6%
CCOc1ccccc1CNC(=O)C1CCC(=O)N1C(C)C (stereo not given)	-0.1	-4	-3	-15	-1%
COc1ccc(N2CCN(C(=O)COc3ccc4c(C)cc(=O)oc4c3)CC2)cc1	-4.4	2	-6	.	3%
Cc1cc(C(=O)NCc2cccs2)c(C)o1	-2.4	3	-5	-8	-3%
O=C1CC(c2ccccc2)CC(O)=C1C=Nc1ccccc1Cl (stereo not given)	-3.5	8	10	-29	-5%
CCCNC(=O)c1cc2c(C(F)(F)F)nn(C)c2s1	1.6	-3	-6	-33	-5%
CCOc1ccc(-c2cc(C(=O)Nc3ccc4c(c3)OCCO4)c3ccccc3n2)cc1	-3.9	-3	-1	-60	9%
COc1ccc(NC(=O)c2ccccn2)cc1OC	-0.8	8	-4	-32	3%
COc1ccc(NC(=O)CN(C)S(=O)(=O)c2cccs2)cc1	-1.1	8	-6	-34	-4%
COCCn1nnnc1CN1CCC(Cc2ccccc2)CC1	5.7	3	3	0	-9%
O=C(NNC(=O)c1ccc(-c2ccccc2)cc1)c1ccccc1	-1.0	8	6	-9	0%
CCOC(=S)SCc1cn2ccc(C)cc2n1	-1.1	-8	-2	-22	-2%
Cc1ccc(-c2cc(C(=O)N3CCOCC3)c3cc(C)ccc3n2)cc1	-0.3	.	51	.	.
CCc1cccc(NC2c3ccccc3C(=O)N2c2cccnc2)c1 (stereo not given)	2.4	0	-3	-25	9%
CCOCCCNC(=O)C(NC(=O)Cc1cccs1)c1ccc(Cl)cc1 (stereo not given)	-1.2	3	-4	.	0%
COC(=O)c1ccc2c(=O)n(Cc3ccco3)c(SCC(=O)Nc3cc(C)on3)nc2c1	-0.8	-5	-2	.	7%
COc1ccccc1CN1CCN(C(=O)COc2ccccc2)CC1	-4.9	-2	-12	-109	8%
CCCCN(CCCNC(=O)Cn1ncc2ccsc2c1=O)Cc1ccccc1	-0.9	8	-11	.	-5%
O=C(CNCC1CCCO1)N1CCCCCC1 (stereo not given)	-3.4	6	-2	.	-1%
CCOC(=O)C1C(c2ccc(C(=O)O)cc2)NC(=O)NC1(O)C(F)(F)F (stereo not given)	-0.2	.	3	.	.
CCOC(=O)N1CCC(Nc2c(N3CCN(c4cc(Cl)ccc4C)CC3)c(=O)c2=O)CC1	0.6	4	-7	-40	13%	Arbovirus inh repeat=-2
O=C(NC1CCCC1)C(c1ccccc1)N(Cc1ccccc1)C(=O)c1csnn1 (stereo not given)	1.6	.	0	.	.
CCN(CC)S(=O)(=O)c1cccc(C(=O)Oc2cccnc2)c1	14	-1	99	19	6%
CC(C)CC(=O)NC(=S)Nc1ccc(N2CCOCC2)c(Cl)c1	3.8	1	5	.	8%
Cc1ccc(-c2csc(NC(=O)CSC3=NCCS3)n2)cc1	58*	-13	99	-4	4%
Cc1cc(-c2ccccc2)nc(=O)[nH]1	.	7	6	-22	-2%
COCCCNc1nc2nonc2nc1N1CCN(Cc2cccc(C)c2)CC1	-2.6	3	-22	.	-1%
CN(Cc1c(F)cccc1Cl)C(=O)c1cc2ccccc2o1	4.3	11	4	.	4%
CC1CCN(C(c2ccc(N(C)C)cc2)c2nnnn2Cc2ccccc2)CC1 (stereo not given)	-2.1	-2	1	-1	3%
CCOC(=O)c1ccc(NC(=O)N2CCOCC2)cc1	3.3	1	-3	.	86%
CCOC(=O)N1CCN(S(=O)(=O)c2ccc(C(=O)Nc3sc4c(c3C(=O)OC)CCN(C)C4)cc2)CC1	-2.0	.	55	.	.
Cc1ccc(NC(=O)CN2CCCCCC2)cc1[N+](=O)[O-]	3.7	10	0	.	5%
CCCS(=O)(=O)N1CCCC(C(=O)Oc2ccc(C)c(C)c2)C1 (stereo not given)	0.2	.	13	.	.

Six records picked at random from the list so far, as already listed:
SMILES	RecA splice inh	Arbovirus inh	Mtb bLac sens	YopH PTP inh	Mtb H37Rv	others
CCOC(=O)C1C(c2ccc(C(=O)O)cc2)NC(=O)NC1(O)C(F)(F)F (stereo not given)	-0.2	.	3	.	.
CCN(CC)S(=O)(=O)c1cccc(C(=O)Oc2cccnc2)c1	14	-1	99	19	6%
CCCS(=O)(=O)N1CCCC(C(=O)Oc2ccc(C)c(C)c2)C1 (stereo not given)	0.2	.	13	.	.
CCOC(=O)c1ccc(NC(=O)N2CCOCC2)cc1	3.3	1	-3	.	86%
COCCCNc1nc2nonc2nc1N1CCN(Cc2cccc(C)c2)CC1	-2.6	3	-22	.	-1%
CCOC(=O)N1CCN(S(=O)(=O)c2ccc(C(=O)Nc3sc4c(c3C(=O)OC)CCN(C)C4)cc2)CC1	-2.0	.	55	.	.

Following part
SMILES	RecA splice inh	Arbovirus inh	Mtb bLac sens	YopH PTP inh	Mtb H37Rv	others
O=c1c(Cl)c(NCCO)cnn1-c1cccc(Cl)c1	-0.9	-1	-5	.	0%
COc1ccc(NC(=O)C2CC(c3cccc(Br)c3)=NO2)cc1OC (stereo not given)	8.4	.	0	.	.
COc1ccc(NC(=O)[C@@H]2CCCN2C(=O)[C@@H]2Cc3ccccc3CN2C(=O)OC(C)(C)C)cc1	1.0	.	-5	.	.
O=C(/C=C/Nc1ccccc1)c1cnc(-c2ccccc2)s1	-2.9	4	8	-29	1%
COc1ccc(N(Cc2ccccc2)S(=O)(=O)c2cccc(C(=O)O)c2)cc1	0.8	.	-16	.	-11%
CCCOc1ccccc1OCC(=O)Nc1ccc(S(=O)(=O)N2CCCCC2)cc1	2.6	.	-2	.	.
COc1ccccc1N1C(=O)c2ccc(C(=O)Nc3cccc(C(C)=O)c3)cc2C1=O	2.4	.	-4	.	.
CN1CCN(/N=C/c2ccc(N(c3ccccc3)c3ccccc3)cc2)CC1	-7.1	-42	13	.	2%
CC(C)C(c1nnnn1C1CCCC1)N1CCCc2ccccc21 (stereo not given)	-2.4	6	1	-9	-2%
Cc1ccc(N2CCN(C3=NC(=O)/C(=C\c4cn[nH]c4-c4ccccc4)S3)CC2)cc1	-1.1	-5	7	-2	11%
COC(=O)c1ccc2nc(Nc3nc4ccc(F)cc4s3)sc2c1	-11	-32	62	-32	8%
Cc1ccc(C)c(C(=O)COc2ccccc2[N+](=O)[O-])c1	3.6	-17	89	-13	75%
CC(Oc1ccc(F)cc1Br)c1nc2ccccc2c(=O)[nH]1 (stereo not given)	2.6	.	6	.	.
COc1ccc(Nc2ncc3c(n2)CC(c2ccc(OC)cc2)CC3=O)cc1 (stereo not given)	-2.1	1	17	-1	7%
CCOc1ccc(NC(=O)Nc2ccc3c(c2)nc(C)n3C)cc1	-0.5	.	-5	.	-2%
CC(C)(C)c1cc(Br)ccc1OCC(=O)Nc1ncn[nH]1	0.3	3	-11	-27	4%
CC(=O)N1CCC(N(C(=O)Nc2ccc(F)cc2)C2CCCC2)CC1	-2.3	-6	-6	-20	1%
CC(C)C[C@@]12C(=O)N(c3ccc(Br)cc3)C(=O)N1[C@H](c1ccc(Br)cc1)[C@@H]1C(=O)N(C(C)(C)C)C(=O)[C@@H]12	-4.0	.	-1	.	.
Cc1ccc(C(=O)NC(C)CCc2ccccc2)cc1[N+](=O)[O-] (stereo not given)	-0.2	1	100	-13	32%
COc1cc(NC(=O)c2ccc(CNc3c(N4CCCC4)c(=O)c3=O)cc2)cc(OC)c1OC	2.2	.	.	.	1%
O=C(Nc1nc(N2C(=O)c3ccccc3C2=O)n(-c2ccccc2)n1)c1ccc(F)cc1	1.7	1	-4	9	6%
CCn1c(CNC(=O)Cc2ccc(OC)cc2)nnc1SCC(=O)c1ccc(Br)cc1	1.0	7	1	-9	-3%
CSc1cccc(NC(=O)CNC(=O)c2ccc3c(c2)OCO3)c1	-1.7	.	-15	.	.
COc1ccc(-c2cc(-c3nnc(COC(=O)c4ccncc4)o3)c3ccccc3n2)cc1OC	-1.2	-7	7	.	8%
CCCc1nc2c(sc3nc4c(cc32)COC(C)(C)C4)c(=O)n1CCN(C)C	3.1	-4	-17	.	-7%
O=C(N1CCCCC1)N1CCN(C(=O)N2CCCCC2)CC1	0.1	1	2	.	-5%
CCO[C@H]1OC(C(=O)Nc2ccccc2)=C[C@@H](c2cn(C(C)=O)c3ccccc23)[C@@H]1CCCO	3.8	-9	6	.	1%
COc1ccc(C(CNC(=O)Cn2c(=O)oc3ccccc32)N(C)C)cc1 (stereo not given)	-1.4	.	-5	.	.
COc1cccc(CCN2CCC(CNS(=O)(=O)c3cc(-c4cc(C)no4)ccc3OC)CC2)c1	1.2	.	1	.	.
CCC1Oc2ccc(C)cc2N(CC(=O)N(Cc2ccc3c(c2)OCO3)CC2CCCO2)C1=O (stereo not given)	1.5	-9	7	-27	3%

Only part of the results is shown. The share of hits here may be higher or lower than overall.
